# NPR1 antag: Natriuretic polypeptide receptor (hNpr1) antagonism - Primary qHTS. Atrial natriuretic peptide receptor 1 (Homo sapiens), P16066. HEK293 hNpr1 GloSensor cGMP, ANP-stimulated luminescence. Potency, µM (titrated, usually from 46.3 µM), for inactives: at the highest dose activity change, negative = inhibition, usual class: inhibitors. 1.6% of 76,000 active. AID 1347048, 2019; active = well fitted inhibition curve with a large enough effect; inconclusive = small, poorly fitted or top-dose-only effect; inactive = no such curve, though single readings can be large or run the other way;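 note: nearly all actives have a fitted effect of over 60% in size; nearly all hits also lower the signal before the agonist is added; a reference antagonist and vehicle were the controls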
# Target sequence (P16066 whole entry, looked up): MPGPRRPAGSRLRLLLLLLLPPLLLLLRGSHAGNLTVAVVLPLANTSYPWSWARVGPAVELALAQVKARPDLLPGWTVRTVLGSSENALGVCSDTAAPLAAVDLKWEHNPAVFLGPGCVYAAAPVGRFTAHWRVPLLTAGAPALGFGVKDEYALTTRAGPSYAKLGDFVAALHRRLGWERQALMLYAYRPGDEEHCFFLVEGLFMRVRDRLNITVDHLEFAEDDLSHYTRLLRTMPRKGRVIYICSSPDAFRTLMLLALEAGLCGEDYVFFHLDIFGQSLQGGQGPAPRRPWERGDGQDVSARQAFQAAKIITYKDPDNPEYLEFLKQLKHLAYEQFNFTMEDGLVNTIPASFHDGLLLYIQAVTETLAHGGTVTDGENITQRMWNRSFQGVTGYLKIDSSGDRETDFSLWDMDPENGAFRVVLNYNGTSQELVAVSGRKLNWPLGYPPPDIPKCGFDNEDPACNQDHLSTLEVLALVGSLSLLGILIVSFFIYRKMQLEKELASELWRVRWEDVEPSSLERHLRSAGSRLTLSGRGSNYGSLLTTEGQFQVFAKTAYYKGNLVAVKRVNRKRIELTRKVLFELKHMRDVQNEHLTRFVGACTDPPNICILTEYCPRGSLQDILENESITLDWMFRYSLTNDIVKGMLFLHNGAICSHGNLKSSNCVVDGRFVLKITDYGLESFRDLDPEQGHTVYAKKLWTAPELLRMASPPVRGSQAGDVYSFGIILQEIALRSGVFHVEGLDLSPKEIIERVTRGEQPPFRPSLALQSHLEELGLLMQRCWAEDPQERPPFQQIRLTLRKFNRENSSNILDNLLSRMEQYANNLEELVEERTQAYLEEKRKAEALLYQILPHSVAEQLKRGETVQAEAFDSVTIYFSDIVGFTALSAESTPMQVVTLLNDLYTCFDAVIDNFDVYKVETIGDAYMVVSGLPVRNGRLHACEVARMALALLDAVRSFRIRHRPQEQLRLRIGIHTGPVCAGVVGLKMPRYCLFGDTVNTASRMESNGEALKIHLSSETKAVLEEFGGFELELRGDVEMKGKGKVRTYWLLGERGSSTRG
#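 HEK293 cells stably expressing human Npr1 and cGMP GloSensor pGS-40F, loaded 2 h with 2% GloSensor reagent, given compound 30 min at room temperature. Luminescence read before and 20 min after 0.1 nM hNppA.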
# * = called active by the depositor; ? = inconclusive; & = joins results of further samples; [ ] = another dose, or the depositor's remark. % is set by controls: 0 for no effect and ±100 for the full control effect; potency is the fitted concentration of half-maximal effect. This is a subset; the hit share may differ from the screen's.
canonical_smiles | NPR1 antag
CC1(C)[C@H](Cc2cc(-c3ccc(F)cc3)on2)C[C@@H]1NC1CCC1 | 4%[70.6 µM]
COc1ccc(-c2cc(N3CCCN(C(=O)c4ccc5[nH]ccc5c4)CC3)n[nH]2)cc1 | -2%
Nc1nc(C2CC(O)C2)cc(N2CCC(Cc3ccc(F)cc3)CC2)n1 (stereo not drawn) | 11µM*
COc1ccc(C(=O)Nc2ccc3c(c2)CN(Cc2cccc(OC)c2OC)C(=O)CO3)cc1 | -1%
CC(C)CN1CCC(O)(c2csc(CN3CCOCC3)n2)CC1 | 1%[70.6 µM]
CN(Cc1ccc(-c2ccccc2)cc1)[S+](=O)([O-])c1cccc(C(F)(F)F)c1 | -22%
CN1C(=O)[C@H]2CN(Cc3cc(F)c(F)cc3F)C[C@H]2C1=O | 0%
Cc1ccc(F)c(C(=O)N[C@H]2CCOC[C@H]2C2CCOCC2)c1Cl | 2%
O=C(c1cc2n(n1)CC(c1ccc3c(c1)OCO3)OC2)N1CCCCC1 (stereo not drawn) | -7%
CN(C)C[C@@H]1CN(Cc2ccncc2)C[C@H]1NC(=O)c1ccc(F)cc1 | -3%
Cc1ccccc1CC(=O)N[C@@H]1CN(S(C)(=O)=O)C[C@H]1CN(C)C | -7%
CCC(=O)N1CCc2[nH]nc(C(=O)NCCCc3ccccc3)c2C1 | -12%
COc1ccc(-c2ccnc(-c3nnc(C)n3C(C)C)c2)cc1OC | 2%[70.6 µM]
CCOC(=O)C1CCCN(C(=O)C2COC3(CCCCC3)N2C(=O)c2cccc(Cl)c2)C1 (stereo not drawn) | 0%
CC(C)N1C[C@@H]2C[C@H]1C(=O)N(CC1CC1)c1ccccc1O2 | -6%[70.6 µM]
O=C(c1ccoc1)N1CCC(Cc2nc(C3CC3)n[nH]2)C1 (stereo not drawn) | -4%
O=C(Cc1cccn1-c1ccc(F)cc1)N1CCCCC1 | -25%
O=c1cc(N2CCOCC2)cnn1Cc1cc(C(F)(F)F)ccc1F | 5%
CNC(=O)c1cc[nH]c1C1CCCN(Cc2ccsc2)C1 (stereo not drawn) | 0%
COCC(=O)N1CC[C@H]2COC(=O)N2c2cc(C)ccc2C1 | -5%[70.6 µM]

# Structures listed so far that have sulfur, in the order listed:
canonical_smiles | NPR1 antag
CC(C)CN1CCC(O)(c2csc(CN3CCOCC3)n2)CC1 | 1%[70.6 µM]
CN(Cc1ccc(-c2ccccc2)cc1)[S+](=O)([O-])c1cccc(C(F)(F)F)c1 | -22%
Cc1ccccc1CC(=O)N[C@@H]1CN(S(C)(=O)=O)C[C@H]1CN(C)C | -7%
CNC(=O)c1cc[nH]c1C1CCCN(Cc2ccsc2)C1 (stereo not drawn) | 0%

# Further structures.
canonical_smiles | NPR1 antag
COCCNC(=O)c1cc(NC(=O)C(C)C)cc2nc(C)ccc12 | -5%
CS(=O)(=O)N1C[C@@H](COc2ccccc2)[C@H](C(N)=O)C1 | 9%
COCC1(CNC(=O)c2cc(C)on2)C[C@@H](O)[C@@H](O)C1 (stereo partly drawn) | 5%[70.6 µM]
COc1ccc(N2CCN(C(=O)c3ccc4c(c3)N(C)C3CCCCN3C4=O)CC2)cc1 (stereo not drawn) | 8%
Cc1cc(N2C[C@@H](C)[C@@](C)(O)C2)nc(N2CCCCC2)n1 | -3%
CCN(Cc1nc(C)no1)C(=O)c1cc(COc2ccccc2F)[nH]n1 | 0%
O=C(c1ccccn1)N1CCC(Cc2nc(-c3ccccc3)n[nH]2)C1 (stereo not drawn) | -1%
O[C@@H]1C[C@@H](c2nc(-c3ccc4c(c3)OCO4)no2)N(Cc2ccccn2)C1 | -1%[70.6 µM]
O=C(Nc1ncc(-c2cccc(F)c2)c2c1OCC2)c1c[nH]c2ccccc12 | -12%[70.6 µM]
COc1ccc(CC(=O)NC2CCc3nnc(C)n3CC2)cc1 (stereo not drawn) | -2%
O=C(C1CC(=O)N(c2n[nH]c3cccc(F)c23)C1)N1CCN(c2ccccc2)CC1 (stereo not drawn) | 2%
O=C(NC1CCCN(CCc2ccccc2)C1)C1(Cn2cccn2)CC1 (stereo not drawn) | 3%
COc1ccc(C(=O)Nc2ccc([C@H]3OCC(=O)N(C(C)C)[C@@H]3CO)cc2)cc1OC | -5%[70.6 µM]
CN(C)C(=O)CO[C@H]1COCCN(Cc2ccccn2)C1 | 3%[70.6 µM]
O=C(c1cc(-c2ccccc2F)cc2c1OCCN2Cc1cccnc1)N1CC(O)C1 | -20%[70.6 µM]
COc1cccc(CNC(=O)[C@@H]2C[C@@H](O)CN2C2CCN(C(=O)c3ccccn3)CC2)c1 | 0%
CCOc1ccc(CN2C(=O)C3(CCOCC3)CC2c2nnnn2CCOC)cc1OC (stereo not drawn) | 0%
O=C(NC1CCCCCC1)C1CC(=O)N(c2n[nH]c3cccc(F)c23)C1 (stereo not drawn) | 5%
CC(C)c1ccc(S(=O)(=O)N2CCC(CC(=O)NCc3ccccc3)C2)cc1 (stereo not drawn) | -13%
CCCN(CC1CCOC1)S(=O)(=O)c1ccc(Cl)c(C)c1 (stereo not drawn) | 3%

# Later entries.
canonical_smiles | NPR1 antag
CC1=C[C@@H](CN2CCC[C@H]2CO)[C@H](C(C)C)C[C@H]1Cc1nnc(-c2cncn2C)o1 | 1%[70.6 µM]
COc1ccccc1C(=O)NCc1nnc2c(-c3nc(C4CC4)no3)cccn12 | -3%
Cc1cc(CN2CCC3(CC2)CN(C2CCC2)CC3CO)n(C)n1 (stereo not drawn) | 0%
COCCNC(=O)[C@@H]1C[C@H](Oc2cccnc2)CN1C(=O)c1cc2ccc(OC)cc2[nH]1 | 2%
CCOc1ccc(C2Cn3nnc(-c4nc(-c5ccccc5OCC)no4)c3CO2)cc1 (stereo not drawn) | 0%
CS(=O)(=O)N1CCCN(C(=O)c2cccs2)CCNC(=O)CC1c1ccccc1 (stereo not drawn) | 2%
COc1ccccc1NC(=O)c1c(OC)cc(=O)n2c1CCCC2 | -6%
COc1coc(C(=O)NCCC2CN(c3cnn(C)c(=O)c3)CCO2)cc1=O (stereo not drawn) | 0%
CC(C)(C)c1ccc2oc(CNC(=O)CN3C(=O)CNC3=O)nc2c1 | 0%
CC(C)NC(=O)N[C@H]1C[C@H]2C(=O)NC[C@@H](CCC(=O)N3CCCC3)N2C1 | 0%[70.6 µM]
Cc1cccc(-c2noc(CCC(=O)N3CCc4c(nc(C)[nH]c4=O)C3)n2)c1 | 3%
CN(C)[C@@H]1CN(C(=O)c2cccn2C)CC[C@]1(O)c1ccccc1 | 3%
O[C@@H]1CO[C@H]2[C@@H]1OC[C@@H]2n1nnnc1-c1ccc(-c2ccccc2)cc1 | 2%[70.6 µM]
Cc1cc(N2CCC(NCc3noc(C)n3)CC2)nc(-c2ccccc2O)n1 | -1%
Cc1ccc(-c2ncc(NC(=O)Cc3ccccc3C)cn2)cc1 | -16%
CN(CC(=O)N1CCC2(CC1)CN(CC(=O)O)C(=O)O2)Cc1cccnc1 | 13%
Cc1cccc(C(=O)N2CCC(Cc3nc(-c4cnccn4)no3)CC2)c1 | -9%
CCc1nc(-c2c3n(c(=O)n(Cc4cc(F)cc(F)c4)c2=O)CCCC3)no1 | 14%
Cc1ccccc1N1Cc2c(NCc3ccc4c(c3)OCO4)ncnc2N(C)CC1=O | 0%
OC1(CNC2CCN(Cc3cc(F)cc(F)c3)CC2)CNCCOC1 (stereo not drawn) | 2%

# Reprinted from the part before: 4 compounds, then new ones.
canonical_smiles | NPR1 antag
Cc1cccc(C(=O)N2CCC(Cc3nc(-c4cnccn4)no3)CC2)c1 | -9%
CCc1nc(-c2c3n(c(=O)n(Cc4cc(F)cc(F)c4)c2=O)CCCC3)no1 | 14%
Cc1ccccc1N1Cc2c(NCc3ccc4c(c3)OCO4)ncnc2N(C)CC1=O | 0%
OC1(CNC2CCN(Cc3cc(F)cc(F)c3)CC2)CNCCOC1 (stereo not drawn) | 2%
O=C(CCOc1ccccc1)N[C@@H]1CCNC[C@H]1O | -1%
COc1ccccc1NC(=O)CC1CCCN(c2cnn(CC3CC3)c(=O)c2)C1 (stereo not drawn) | -20%
CCN(Cc1ccncc1)C(=O)c1cc(CN2CCC(Cc3ccccc3)CC2)on1 | ?
CN1CCN(C(=O)c2cnc(-c3ccccn3)nc2)[C@H]2CS(=O)(=O)C[C@H]21 | 3%
CCCCOc1ccc(C(=O)N2CCC[C@H]2c2nc(-c3ccc(OC)cc3)no2)cc1 | ?
O=C(c1cnc2sccn2c1=O)N1CCn2nc(C(O)C3CC3)cc2C1 (stereo not drawn) | 3%
CCn1ncc(C(=O)N2C[C@@H](COc3ccccc3)[C@H](C(N)=O)C2)c1C | -1%
CCN1CC(c2ccccc2)CC2(CCN(Cc3cnc(SC)nc3)CC2)C1 (stereo not drawn) | -7%
Cc1ccc2nc(C3CCCN(Cc4ccccc4)C3)[nH]c(=O)c2c1 (stereo not drawn) | 3%[70.6 µM]
O=C(NC1CCN(c2cc(C(F)(F)F)ncn2)CC1)c1cccc(Cl)c1 | -21%
CCn1ccc(C(=O)N2CCC3(CC2)CC(N(C(=O)c2ccccc2)C2CC2)CCO3)n1 (stereo not drawn) | -3%
O=C(OCc1ccccc1)N1CCC2(CC1)C(=NC1CCCCC1)NC(=O)N2c1cccnc1 | 0%
Cc1noc([C@@H]2CC(F)(F)CN2S(=O)(=O)c2cn(C)cn2)n1 | 3%
COC1CCCN(C(=O)c2cc(-c3cccc(N(C)C)c3)cc3ncn(C)c23)C1 (stereo not drawn) | -1%[70.6 µM]
COc1ccc(NC(=O)NCC2Cn3cccc3C(=O)N2C)cc1 (stereo not drawn) | 5%
CCNCc1ccc(-c2ccc(F)cc2)o1 | -1%
COc1ccc(CN2C=C(C(=O)OCc3noc(-c4ccco4)n3)C(C)=NS2(=O)=O)cc1 | ?
CC(C)c1ccc(CNC(=O)c2cc3n(n2)CC(c2ccc(Cl)cc2)OC3)cc1 (stereo not drawn) | -27%
CC(=O)NC[C@@H]1C=C(C)[C@H](CC(=O)NCc2cccnc2)C[C@H]1C(C)C | 2%[70.6 µM]
Cc1ncoc1C(=O)N1CCCn2ccnc2C1c1ccccc1 (stereo not drawn) | -1%

# (more compounds)
Compound	NPR1 antag
CCCN(CC1CCOC1)S(=O)(=O)c1ccc(OC)c(Cl)c1 (stereo not drawn)	1%
COC(=O)c1ccc2nc(CO[C@H]3CN(Cc4ccc(Cl)cc4)C[C@H]3F)[nH]c2c1	32µM*
COc1ccccc1C(=O)Nc1ccc(C(O)[C@H]2COCC(=O)N2C)cc1 (stereo partly drawn)	-8%[70.6 µM]
COCCCn1c(C)cnc1C1CCN(C(=O)Nc2ccccc2F)C1 (stereo not drawn)	-4%
COCC1CN(C2CCC2)CC12CCN(C(=O)COc1ccc(F)cc1)CC2 (stereo not drawn)	-13%
Cc1nc(N2CCN(C(=O)c3cccc(Cl)c3)CC2)cc(C(F)(F)F)n1	1%
O=C1CC2CCCC(C1)N2C(=O)c1ccc(C(F)(F)F)cc1	3%&1%[70.6 µM]
CC(NCc1cn(CCC(N)=O)c2ccccc12)c1ccccc1-n1cccn1 (stereo not drawn)	-5%
COc1ccc(C(=O)N2CCCCCCN(C)C(=O)[C@@H]3CCC[C@@H]32)c(OC)n1	6%
CC(C)CN1CCN(C(=O)C2CCCN(S(C)(=O)=O)CCC(=O)NCC2)CC1 (stereo not drawn)	-3%
CCc1nc(C)sc1-c1nc2c([nH]1)CC(C)(C)CNC2=O	2%
COC(=O)[C@@H]1Cc2c([nH]c3ccccc23)[C@H]2C[C@@H](NCCN3CCOCC3)C[C@@H](c3ccc(OC(F)(F)F)cc3)N21	5%
Cc1ccc(C)c(NC(=O)Cn2c(-c3ccc(F)cc3)nc(C)cc2=O)c1	1%
O=C(Nc1cccc(F)c1)N1CCc2nnc(C3CC3)n2CC1	-7%
CCOc1ccccc1NC(=O)C1CCN(C(=O)c2ncn3c2COC(c2ccc(F)cc2)C3)CC1 (stereo not drawn)	1%
C=CCOc1cccc(-c2nnc(CCC(=O)NCc3ccccc3)c(=O)[nH]2)c1	-10%
Cc1cc(N2CCC(NC(=O)c3cccc(N(C)C)c3)C2=O)ccc1F (stereo not drawn)	-2%
Cn1nc2n(c1=O)CCN(C(=O)CCCc1nc3ccccc3s1)CC2	-2%
Cn1nc(C2CCN(C(=O)c3ccccc3Cl)CC2)[nH]c1=O	0%[70.6 µM]
Cn1cc(CNC(=O)C2CCN(c3nc(-c4ccccc4)nc4c3CCC4)CC2)cn1	6%

# Next part.
Compound	NPR1 antag
COCC1CN(S(=O)(=O)c2ccc3c(c2)CCC3)CC12CCNCC2 (stereo not drawn)	-8%
COc1cccc(Cl)c1-c1nccc2c(=O)cc(-c3ccccn3)oc12	6%[70.6 µM]
O=C(CN1CC2CC(C1)[C@H]1CCCC(=O)N1C2)NCCN1CCCCC1 (stereo partly drawn)	7%
NS(=O)(=O)c1ccc(CCNC(=O)c2cc3n(n2)CC(c2ccc(Cl)cc2)OC3)cc1 (stereo not drawn)	14µM*
O=C(c1ccccc1OCC1CCCN(CCCc2ccccc2)C1)N1CCCC1 (stereo not drawn)	-2%
COc1ccc(S(=O)(=O)N2CC(N(C3CCOCC3)S(C)(=O)=O)C2)cc1	-2%
COc1cccc(C(=O)N2CCN(c3cc(C(F)(F)F)nc(C)n3)CC2)c1	-1%
Cc1nccn1-c1ccc(NC(=O)C2CCCN(c3ncccc3C#N)C2)cc1 (stereo not drawn)	-20%
COCCN1CCC(CN(Cc2ccncc2)C(=O)c2csc(C)n2)CC1	3%
CCN1c2cc(C(=O)NCc3cccc(Br)c3)ccc2C(=O)N2CCCCC21 (stereo not drawn)	0%
COc1cccc(-c2noc(Nc3ccc4c(c3)OCCO4)n2)c1	5µM*
